Screening data deposited in PubChem by National Center for Advancing Translational Sciences (NCATS).
VDR inh = Inhibitors of the vitamin D receptor (VDR): qHTS; Vitamin D3 receptor (Homo sapiens), P11473; VDR-SRC2-3 peptide fluorescence polarization, 2 h; Potency, µM, for the others: max response, negative = inhibition, actives largely listed as inhibitors; hit rate 0.93% among 400,000; active = well fitted inhibition curve with a large enough effect; inconclusive = small, poorly fitted or top-dose-only effect, or another doubt; inactive = no such curve, though single readings can be large or run the other way; note: series mostly up to about 120 µM
Target sequence (P11473 whole entry, looked up): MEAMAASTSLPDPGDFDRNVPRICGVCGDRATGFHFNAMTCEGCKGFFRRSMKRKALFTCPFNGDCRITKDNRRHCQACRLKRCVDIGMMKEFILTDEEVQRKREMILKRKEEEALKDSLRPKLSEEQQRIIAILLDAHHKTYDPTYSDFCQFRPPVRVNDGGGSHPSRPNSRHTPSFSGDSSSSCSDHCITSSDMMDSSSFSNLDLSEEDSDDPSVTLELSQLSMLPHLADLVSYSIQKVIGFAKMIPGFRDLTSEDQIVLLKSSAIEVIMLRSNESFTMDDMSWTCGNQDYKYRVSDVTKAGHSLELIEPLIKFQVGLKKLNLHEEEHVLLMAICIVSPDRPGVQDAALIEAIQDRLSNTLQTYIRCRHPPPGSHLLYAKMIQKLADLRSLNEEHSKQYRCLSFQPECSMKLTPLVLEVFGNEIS
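Fluorescence polarization assay measuring small-molecule disruption of VDR binding to the coregulator peptide SRC2-3. Compounds were pin-transferred (23 nl) into the reagent mix and incubated 2 h at room temperature before reading.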
The depositor's hits bear a star; ? = inconclusive; & = joins results of further samples. % is set by controls: 0 for no effect and ±100 for the full control effect; potency is the fitted concentration of half-maximal effect. An excerpt; rates above refer to the full screens.

SMILES | VDR inh
CCO[C@H]1OC(C(=O)N2CCOCC2)=C[C@@H](c2cn(C(C)=O)c3ccccc23)[C@@H]1CCCO | 6.5%
Cc1ccc(O)c(C2=NCCNC(C(F)(F)C(F)F)=C2)c1 | -8.1%
Cc1cc(C)n(-c2nc3c(c(=O)[nH]c(=O)n3C)n2CCc2ccccc2)n1 | -8.7%
CCOc1ccc(-c2nn(CC(=O)NC3CCCC3)c3c2cnc2ccc(F)cc23)cc1 | 4.8%
CC(C)c1ccccc1OCC(=O)NN1C(=O)c2ccccc2C1=O | -0.3%
Cc1ccc(-c2csc(NCCn3c(C)nc4cc(C(F)(F)F)ccc43)n2)cc1 | -21.0%
O=C(Nc1nc(-c2ccc(-c3ccccc3)cc2)cs1)C1=COCCO1 | 5.0%
COC(=O)c1ccc(C(=O)OC)c(NC(=S)N2CCCCC2)c1 | 1.4%
Cc1nn(-c2ccccc2)c(C)c1C(=O)OCC(N)=O | -8.4%
O=C(CN1CCN(C2CCCCC2)CC1)Nc1ccccc1N1CCCCC1 | 9.0%
CS(=O)(=O)N1CCC(C(=O)Nc2ccc(Cl)cc2)CC1 | -26.1%
COc1ccc2[nH]c(C)c(CCNC(=S)Nc3cccc(C)c3)c2c1 | 9.1%
Cc1ccc(S(=O)(=O)N2CCN(C(=O)CN3C(=O)NC4(CCCC4)C3=O)CC2)c(C)c1 | 2.0%
CCCCC(=O)N(CCOC)c1nnc(-c2ccccc2C)s1 | 17.8%
COc1ccccc1CNc1ncc(-c2ccccc2)n1C | -3.1%
O=C(C[C@H]1C/C=C\CC[C@@H](Cc2ccc(F)cc2)C(=O)O[C@H](c2ccccc2)CNC1=O)N[C@H](CO)Cc1ccccc1 | ?
COc1ccc(O)c(-c2[nH]ncc2C(=O)c2ccccc2)c1 | 14.6%
COC(=O)c1cccc(NC(=O)C(C)N2C(=O)c3ccccc3C2=O)c1 (stereo not given) | -0.9%
O=C(Cn1ccc2ccccc2c1=O)NCCC(=O)Nc1ccc(F)cc1F | -2.5%&-27.4%
CCN(CC(=O)Nc1c(F)cccc1F)C(=O)Cc1n[nH]c(=O)c2ccccc12 | -5.2%
COc1cccc(OCC(O)CN2CC(C)CC(C)C2)c1 (stereo not given) | -7.8%
CCc1cccc(OC2OC(CO)C(O)C(O)C2NC(C)=O)c1 (stereo not given) | -13.7%
CCc1ccc(NC(=O)c2cc(C)on2)cc1 | -2.4%
O=C(CSc1ccc(C(F)(F)F)cc1[N+](=O)[O-])Nc1ccccc1 | 9.8%
O=C(Oc1ccccc1C(=O)Nc1ccccc1)c1ccccc1Br | 4.0%
CCCCn1c(N)c(N(CC(C)C)C(=O)c2cc3c(s2)CCCCC3)c(=O)[nH]c1=O | -8.9%
CN(CCc1ccccn1)C(=O)CCC1CCCN(C(=O)c2ccccn2)C1 (stereo not given) | 7.4%
Cc1ccc(CSc2nc3ccccc3c(=O)n2CCCC(=O)NCc2ccco2)cc1 | 7.3%
CCn1nc(C)c(CNC(=O)c2ccc(OC3CCN(Cc4ccccn4)CC3)cc2)c1C | -6.3%
Cc1cc(C)cc(OCC(=O)NCC2CCCO2)c1 (stereo not given) | 10.6%
COCCC(=O)N1CCC(Oc2ccc(C(=O)N3CCCC(COC)C3)cc2)CC1 (stereo not given) | -15.1%
CCC1CCCCN1C(=O)CCc1nnc(Cc2cc(OC)ccc2OC)o1 (stereo not given) | -3.9%
O=C1N[C@@H](Cc2ccccc2)C(=O)N2[C@@H]1C[C@]1(Br)c3ccccc3N(S(=O)(=O)c3ccccc3)[C@H]21 | -8.0%
CS(=O)(=O)N1CCC(C(=O)O)CC1 | -1.8%
Cc1ccc(C(c2nnnn2CS(=O)(=O)c2ccc(C)cc2)N2CCC(C)CC2)cc1 (stereo not given) | 0.0%
COc1ccc2cc(CN(CC3CCCO3)S(=O)(=O)c3ccccc3)c(=O)[nH]c2c1 (stereo not given) | 9.2%
CCN1C(=O)CC(NNC(=O)c2ccc(Cl)cc2)C1=O (stereo not given) | -3.7%
CCCn1c(O)c(N=Nc2ccc3ccccc3n2)c2ccccc21 | -5.8%
C=CCOc1ccc(/C=N/NC(=O)C(C)Sc2ccccn2)cc1OC (stereo not given) | 10.2%
CC(=O)Nc1ccc(NC(=O)C(OC(=O)c2ccccc2)C(OC(=O)c2ccccc2)C(=O)O)cc1 (stereo not given) | -16.9%
Cc1ccc(N(CC(=O)N2CCN(c3ccc(Cl)cc3)CC2)S(=O)(=O)c2c(C)noc2C)cc1 | -0.6%
Cn1cccc1/C=N/NC(=O)c1ccn[nH]1 | -7.1%
O=C(CSc1nc2ncc(Cl)cc2[nH]1)NCCc1ccc(F)cc1 | -9.0%
CCSc1nnc(NC(=O)[C@H](C)N2C(=O)C3CC=CCC3C2=O)s1 (stereo not given in full) | 1.9%
COc1cccc(Cc2nc3ccccc3nc2SCC(=O)N2CCc3ccccc32)c1 | 0.9%
CCOC(=O)c1c(S(=O)(=O)N2CCN(C3CCCCC3)CC2)c(C)n(C)c1C | 13.8%
Cc1cccc(NC(=O)c2cc(=O)c3ccccc3o2)n1 | -12.8%
O=Cc1cn(CC(=O)NCC2CCCO2)c2ccccc12 (stereo not given) | -16.5%
Cc1ccccc1CC1(CO)CCCN(C(=O)CCC(=O)c2ccccc2)C1 (stereo not given) | -11.8%
C1CCCC(NC2=NCCO2)CCC1 | -0.5%
O=S(=O)(Nc1cccc(-c2ccc(N3CCCCC3)nn2)c1)c1cccs1 | 5.9%
O=C(COc1cccnc1[N+](=O)[O-])N1CCN(S(=O)(=O)c2ccccc2)CC1 | 2.3%
O=C(/C=C/c1ccc(Cl)cc1Cl)NC(=S)Nc1ccc(CN2CCOCC2)cc1 | 4.6%
CCOc1ccc(C(=O)NNC(=O)CNC(=O)c2ccc(C)s2)cc1OC | 2.5%
CCC(=O)Nc1nnc(S(=O)(=O)N2CCCCCC2)s1 | 0.7%&1.6%
COC(=O)c1cc(C(=O)c2ccc(C(C)(C)C)cc2)c[nH]1 | 6.7%
O=C(COC(=O)c1ccccc1Br)Nc1cccnc1Cl | -5.2%
O=C(/C=C/c1cccs1)NC1CCS(=O)(=O)C1 (stereo not given) | 89.1µM*
CCN1CCCC1CNC(=O)c1cc2c(C)nc3ccccc3c2o1 (stereo not given) | -16.6%
CC1=NOC2(C1)/C(=N/O)CCC/C2=N\O (stereo not given) | 12.5%
Next part:
SMILES | VDR inh
Cc1ccc(-n2nnc(-c3cc4ccccc4n3C)n2)cc1 | -0.8%
Cc1cc(N/N=C/c2ccccc2)nc(N2CCOCC2)n1 | 7.4%
CCCCN1C(=N)N([C@@H](CN2CCC[C@H]2CN2C(N)=NC[C@@H]2Cc2ccccc2)C(C)C)C[C@H]1Cc1ccccc1 | -14.0%
CCCCC(=O)Nc1nn(C)c2nc3c(C)cccc3cc12 | -8.6%
CS(=O)(=O)Nc1cccc(-c2cn3c(n2)SCC3)c1 | ?
O=S(=O)(c1ccc(C2CCCCC2)cc1)N1CCOCC1 | 4.6%
COc1cc(/C=C\C(=O)OCn2nnc3ccccc3c2=O)cc(OC)c1OC | 7.8%
Cn1nnnc1SCc1csc(C2C(C#N)=C(N)OC3=C2C(=O)CCC3)c1 (stereo not given) | 1.3%
CCC(=O)N/N=C(\C)CC(=O)Nc1ccc(Cl)cc1 | -0.9%
O=C(c1ccccc1)c1ccccc1C(=O)N1CCN(Cc2ccccc2F)CC1 | -10.6%
O=C(CSc1nc2ncc(Cl)cc2[nH]1)Nc1cccc(F)c1 | 0.6%
Cc1ccc(Cl)cc1NC(=O)Cn1c(=O)n(CCC(=O)NCc2ccc3c(c2)OCO3)c(=O)c2sccc21 | -17.4%
CC(C)N(Cc1ccccc1)C(=S)NC1CCCCC1 | -5.9%
O=c1c2c3c(sc2ncn1/N=C/c1ccncc1)CCCC3 | ?
CC(=O)NC(C)c1nc2ccccc2n1Cc1ccccc1F (stereo not given) | -4.2%
CCN1C(=NCc2cccc(Cl)c2)N[C@@H](c2cccc(F)c2)C(C(=O)OC)=C1C | -4.9%
COc1ccc(CCNC(=O)C(=O)NCc2ccccc2C)cc1OC | -11.6%
O=C(Nc1nnc(-c2ccc3c(c2)CCCC3)o1)c1ccc(Cl)cc1Cl | -6.6%
Cc1ccc(C)c2sc(NC(=O)c3ccc(S(=O)(=O)N4CCCC4)cc3)nc12 | 12.2%
CCc1ccccc1NC(=O)c1cc2nc(-c3ccc(OC)c(OC)c3)cc(C(F)(F)F)n2n1 | 11.5%
O=C(N1CCN(c2ccccn2)CC1)N1c2ccccc2Sc2ccccc21 | 5.7%
O=C1c2ccccc2C(O)(c2ccccc2)N1C1CC1 (stereo not given) | -17.1%
CC1CCCC(C)N1C(=O)COC(=O)COc1ccccc1C#N (stereo not given) | 4.2%
CC1=C(C(=O)N2CCCCC2)C(c2cccc(Cl)c2)n2c(nc3ccccc32)N1 (stereo not given) | -13.7%

Gathered by group: the entries above with a COOH group (2)
SMILES | VDR inh
CS(=O)(=O)N1CCC(C(=O)O)CC1 | -1.8%
CC(=O)Nc1ccc(NC(=O)C(OC(=O)c2ccccc2)C(OC(=O)c2ccccc2)C(=O)O)cc1 (stereo not given) | -16.9%

Other records follow:
SMILES | VDR inh
CC(C)NC(=O)c1ccc2c(c1)N(CC(=O)N1CCOCC1)C(=O)C(C)(C)O2 | 1.3%
CN(C)c1ccc(NC(=S)NC(=O)/C=C/c2ccco2)cc1 | -11.1%
Cc1ccc(/C=N\Nc2nc3ccc(Cl)cc3[nH]2)o1 | -6.6%
COc1ccccc1CNC(=O)c1ccc2c(c1)CCN2S(=O)(=O)c1ccc(Cl)cc1 | 5.1%
Cc1cc(C)cc(NC(=O)C(=O)NCC(c2cccnc2)N2CCN(c3ccccc3)CC2)c1 (stereo not given) | 14.6%
CC(=O)c1ccc(N2CCN(C(=O)CCS(=O)(=O)c3ccc(C)cc3)CC2)cc1 | 17.0%
Cc1nn(Cc2ccc(Cl)cc2Cl)c(C)c1NC(=O)c1nc2n(n1)C(C(F)F)CC(C)N2 (stereo not given) | -14.9%
COc1cccc(CNC(=O)c2nnn(CC(=O)Nc3ccc4c(c3)OCO4)c2N)c1 | -10.4%
Cc1cccc(C)c1NC(=S)N1CCC(c2ccccc2)C1 (stereo not given) | 12.8%
CC1CCN(CCc2nc3cc(NC(=O)COc4ccccc4)ccc3n2C)CC1 | 5.6%
COc1ccc(N2C(=O)C3CCCN3C2c2ccc(C)cc2)cc1Cl (stereo not given) | 18.5%
COc1ccc(/C=N/NC(=O)C2c3ccccc3Oc3ccccc32)c(OC)c1 | -6.5%
Cc1ccc(C)c(OCCC(=O)OCc2csc(CC(=O)Nc3ccccc3C)n2)c1 | -5.7%
Cc1cccc(S(=O)(=O)Nc2ccncc2)c1 | -16.4%
O=c1[nH]c2cc3c(cc2cc1CN(Cc1ccc2c(c1)OCO2)Cc1nnnn1CC1CCCO1)OCO3 (stereo not given) | 12.9%
Fc1ccc(/C=C/c2nnc(-c3cccs3)o2)cc1 | -13.5%
C/C(=N\NC(=O)c1cccc(S(=O)(=O)N2CCCC2)c1)c1ccncc1 | 19.6%
Cc1cc(C)n2nc(SCC(=O)N/N=C/c3cccc(Br)c3)nc2n1 | 3.3%
Cc1ccc(S(=O)(=O)Cc2sc3ccccc3[n+]2C)cc1 | -13.0%
O=C(CN1C(=O)c2ccccc2C1=O)OCC(=O)N1CCc2ccccc2C1 | -10.5%
COC(=O)c1c(NC(=O)COc2cc(C)ccc2C(C)C)sc2c1CCC(C)C2 (stereo not given) | -15.7%
COc1ccc(CC(=O)Nc2oc(-c3ccccc3)c(-c3ccccc3)c2C#N)cc1OC | 5.6%
CC(C)c1cc(C(=O)Nc2ccc3c(c2)OCO3)no1 | -9.7%
CC1(C)C2CCC13CS(=O)(=O)NC3C2 (stereo not given) | 22.3%

Entries shown so far that have an aryl thioether with sulfur outside any ring, in the order listed:
SMILES | VDR inh
O=C(CSc1ccc(C(F)(F)F)cc1[N+](=O)[O-])Nc1ccccc1 | 9.8%
Cc1ccc(CSc2nc3ccccc3c(=O)n2CCCC(=O)NCc2ccco2)cc1 | 7.3%
C=CCOc1ccc(/C=N/NC(=O)C(C)Sc2ccccn2)cc1OC (stereo not given) | 10.2%
O=C(CSc1nc2ncc(Cl)cc2[nH]1)NCCc1ccc(F)cc1 | -9.0%
CCSc1nnc(NC(=O)[C@H](C)N2C(=O)C3CC=CCC3C2=O)s1 (stereo not given in full) | 1.9%
COc1cccc(Cc2nc3ccccc3nc2SCC(=O)N2CCc3ccccc32)c1 | 0.9%
Cn1nnnc1SCc1csc(C2C(C#N)=C(N)OC3=C2C(=O)CCC3)c1 (stereo not given) | 1.3%
O=C(CSc1nc2ncc(Cl)cc2[nH]1)Nc1cccc(F)c1 | 0.6%
Cc1cc(C)n2nc(SCC(=O)N/N=C/c3cccc(Br)c3)nc2n1 | 3.3%

(listing goes on)
SMILES | VDR inh
CCOC(=O)Cc1csc(NC(=O)c2cc3c(s2)CCCC3)n1 | -3.7%
c1cncc(-c2nc(-c3ccc4c(c3)OCCO4)cs2)c1 | -1.4%
O=C(C[n+]1ccc2c(c1)nnn2-c1ccccc1)c1ccc(Cl)cc1 | -24.2%
COc1cc(NC(=O)N2CCNC2=O)cc(C(=O)Nc2cccc(C(F)(F)F)c2)c1 | 20.7%
CCOC(=O)CSc1nnc(-c2ccc(S(=O)(=O)N3CCC(C)CC3)cc2)o1 | 21.0%
COc1c(/C=N/NC(=O)c2ccncc2)c(CCN(C)C(C)=O)cc2c1OCO2 | -4.3%
Cc1cccc(N2CCN(S(=O)(=O)c3ccc(S(=O)(=O)N4CCCC4)cc3)CC2)c1C | 6.9%
COc1cccc(CNC(=O)c2c[nH]n3c(=O)c(Cl)c(C)nc23)c1 | ?
Cc1ccc(-n2c(O)c(/C=N/c3ncn[nH]3)c3ccccc3c2=O)cc1 | -21.5%
CCOC(=O)C1CCN(C(=O)c2ccc3c(c2)OCO3)CC1 | -11.6%
N=c1oc2cc(O)ccc2cc1C(=O)Nc1ccc(Cl)cc1 | 3.6%
